# RanGTP-Imp inh – inhibitors of RanGTP-importin-beta interaction, primary screen, biochemical, FRET, CFP-Ran, YFP-importin-beta, homogeneous. cell-free CFP-Ran/YFP-importin-beta FRET ratio. 300,000 tested, 1.1% active. inhibition, % (no concentration beside the values);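 active = most replicates above 15%; inconclusive = exactly half above 15%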;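 also: 0% = DMSO wells and 100% = Ran loaded with GDP instead of GTP; wells of about 40 µL received 100 nL stock; the first replicate is given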
# Ecoli rRNA inh – selective bacterial rRNA inhibition in E. coli; E. coli WT GFP vs humanized-ribosome RFP mutants, fluorescence, 24 h; stronger effect = lower value; DMSO median 0, no signal -100; GFP signal change (wild-type ribosome), % (no concentration beside the values); 350,000 tested, 1.6% active; AID 720706;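 active = significant combined selectivity score with lowered wild-type GFP, culture density cut under 30%, mutant RFP and density less affected; inactive = any of these conditions unmet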; also: one replicate is shown; some compounds called inactive have numbers as strong as hits
# Beta cell apopt – blocks beta cell apoptosis | protection from apoptosis, % (no concentration beside the values) | 300,000 tested, 0.8% active | INS-1E cytokine-induced death, ATP luminescence, 48 h; percent of positive-control rescue, neutral wells zero;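 active = all replicates at 75% or more, or half of them and the mean; inconclusive = half reach 75% but not the mean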;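 also: 0% = cytokine-treated negative control wells and 100% = positive control rescue; higher means more ATP so stronger rescue from cytokine killing; wells of about 40 µL received 100 nL stock; the first replicate is given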
# MLL AF4-AF9 inh – MLL-AF4/AF9 protein interaction inhibition. inhibition, % at 10 µM. 350,000 tested, 0.47% active. AlphaScreen, biotin-AF4 peptide binding to FLAG-AF9;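 active = every replicate reaching a set inhibition limit, whatever the replicate mean, cut at about 25% in these data; inconclusive = mean inhibition reaches that limit but some replicates miss it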;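 also: 0% = plate neutral control median and 100% = total signal loss; the record names both 10 and 1 µM as test concentration; the first replicate is given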
# Target sequence (P42568 whole entry, looked up): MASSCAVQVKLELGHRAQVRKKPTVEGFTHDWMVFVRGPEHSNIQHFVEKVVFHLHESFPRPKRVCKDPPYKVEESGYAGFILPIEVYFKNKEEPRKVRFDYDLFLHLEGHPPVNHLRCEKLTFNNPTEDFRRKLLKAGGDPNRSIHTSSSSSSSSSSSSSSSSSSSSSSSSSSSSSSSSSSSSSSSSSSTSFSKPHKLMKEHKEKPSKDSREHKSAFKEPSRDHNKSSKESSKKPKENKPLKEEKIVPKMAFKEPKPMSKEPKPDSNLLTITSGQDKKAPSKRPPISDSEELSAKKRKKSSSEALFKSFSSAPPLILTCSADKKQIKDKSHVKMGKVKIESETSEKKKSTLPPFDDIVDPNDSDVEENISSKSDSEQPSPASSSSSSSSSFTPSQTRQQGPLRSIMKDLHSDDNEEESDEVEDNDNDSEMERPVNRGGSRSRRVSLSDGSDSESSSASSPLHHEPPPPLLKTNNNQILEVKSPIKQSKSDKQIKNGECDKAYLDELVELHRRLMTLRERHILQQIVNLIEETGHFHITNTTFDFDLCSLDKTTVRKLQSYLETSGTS
# Calb FLC – C. albicans growth modulation with fluconazole; C. albicans CaCi-2 (fluconazole-resistant clinical isolate) + fluconazole, Alamar Blue growth, 48 h; growth inhibition, % (no concentration beside the values); 300,000 tested, 0.57% active;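 active = most replicates above 75%; inconclusive = exactly half above 75%; inactive = most below 75%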;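 also: all wells also contain fluconazole at 8 µg/ml as a sub-toxic cotreatment; 0% = median of DMSO wells and 100% = median of geldanamycin control wells; wells of about 8 µL received 7.5 nL stock; the first replicate is given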
# FGF22 binding – binders of recombinant human FGF22 by thermal shift; AID 651658; calls only at 9.99 µM; SYPRO orange fluorescence; percent of sucrose octasulfate shift, DMSO zero; 340,000 tested, 1.5% active; Q9HCT0;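 active = melting point raised past a set limit in the mean and every replicate; inconclusive = no clear call; three in four hits are not shown here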
# Target sequence (Q9HCT0 whole entry, looked up): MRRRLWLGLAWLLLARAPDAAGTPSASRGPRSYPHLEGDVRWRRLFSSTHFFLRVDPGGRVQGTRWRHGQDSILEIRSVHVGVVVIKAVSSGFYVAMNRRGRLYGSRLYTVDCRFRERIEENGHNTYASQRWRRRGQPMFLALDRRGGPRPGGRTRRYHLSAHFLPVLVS
# T cruzi repl – T. cruzi replication inhibition | T. cruzi beta-gal in NIH3T3, luminescence, 90 h | inhibition, % (no concentration beside the values) | 300,000 tested, 1.4% active | AID 1885;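 active = mean inhibition across valid replicates above about 55%, limit read from the data; inconclusive = mean below that limit but half or more replicates reach it; inactive = mean below it, under half of replicates reach it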;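 also: signal also drops with host cell toxicity which is not excluded here; 0% = plate median of DMSO wells and 100% = zero luminescence signal; higher percent means less beta-gal luminescence so fewer parasites; stock transfer was 50 nL into about 50 µL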
# ALR inh – blocks human ALR sulfhydryl oxidase activity | P55789 | purified ALR, DTT oxidation, H2O2 HRP-luminol luminescence | inhibition, % (concentration not given with the values) | 290,000 tested, 3.8% active;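 active = mean and each replicate at 75% or more; inconclusive = only one of the two met; inactive = neither met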;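 also: stock transfer was 7.5 nL into about 7.5 µL; 0% = neutral wells and 100% = wells with inactivated enzyme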
# Target sequence (P55789 whole entry, looked up): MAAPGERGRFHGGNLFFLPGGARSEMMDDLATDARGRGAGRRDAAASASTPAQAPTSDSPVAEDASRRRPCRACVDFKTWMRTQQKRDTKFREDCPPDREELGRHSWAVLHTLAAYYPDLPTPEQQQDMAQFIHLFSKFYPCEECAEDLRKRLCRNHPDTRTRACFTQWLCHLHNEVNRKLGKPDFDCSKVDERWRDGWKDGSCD
# Ecoli rRNA inh OD600 – recorded beside Ecoli rRNA inh, whose call it bears; OD600 change, %; measured here: OD600 growth;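 optical density of the mix in the first replicate; 0 = DMSO median and -100 = no signal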
# Ecoli rRNA inh RFP – second read-out of Ecoli rRNA inh, no call of its own (marks repeat the call); RFP signal change, %; measured here: RFP humanized mutant strains;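 first replicate; 0 = DMSO median and -100 = no signal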
# An asterisk follows results filed as active; i = inactive; ? = inconclusive; nt = not tested or not shown. An excerpt; count on the stated rates, not on these rows.
SMILES,RanGTP-Imp inh,Ecoli rRNA inh,Ecoli rRNA inh OD600,Ecoli rRNA inh RFP,Beta cell apopt,MLL AF4-AF9 inh,Calb FLC,FGF22 binding,T cruzi repl,ALR inh
COC(=O)[C@H](CC(C)C)NC(=O)c1cc2c(cn1)[nH]c1ccccc12,4.3,-2,3,2.0,1,1.2,-20,i,-8,nt
CC1CC(C)CN(C(=O)COC(=O)c2cc3ccccc3cc2O)C1 (stereo not given),?,nt,nt,nt,-1,nt,20,nt,-14,-48
CSc1ccccc1OCc1cc(C(=O)NCc2ccc(C)s2)no1,-2.2,-2,-6,2.7,-1,-3.0,-1,i,5,-16
Cc1ccc(S(=O)(=O)N/N=C\c2cn(CC(N)=O)c3ccccc23)cc1C,?,-23*,-16*,1.1*,-4,0.1,1,i,11,67
CCC(C)(C)C1CCC(NC(=O)c2ccc(S(=O)(=O)N3CCOCC3)cc2)CC1 (stereo not given),nt,nt,nt,nt,4,-3.0,nt,i,nt,-1
COc1ccc(C(=O)NC2CCCCCC2)cc1S(=O)(=O)N1CCCc2ccccc21,1.5,nt,nt,nt,60,nt,0,nt,14,-1
CN(C)c1ccc(-c2nnc(SCC3CCCO3)n2C)cc1 (stereo not given),-2.0,11,10,2.2,-5,0.0,-8,i,13,39
O=C(NCCO)c1ccc(Oc2ccc(C(F)(F)F)cc2[N+](=O)[O-])cc1,2.0,19,17,4.5,nt,-2.5,-5,i,-6,-19
COc1cc(NC(=O)c2c(F)c(F)c(F)c(F)c2F)c(OC)cc1Cl,?,nt,nt,nt,4,nt,-15,nt,5,?
O=C(c1cnn2c(C(F)(F)F)cc(-c3ccccc3)nc12)N1CCCCC1c1cccnc1 (stereo not given),-1.1,-7,-2,-2.1,4,3.5,45,i,59*,-7
CC(=O)O[C@H]1C[C@@]2(C)[C@@H](C[C@@H](O)[C@H]3[C@@]4(C)CC[C@@H](O)[C@@H](C)C4CC[C@@]32C)/C1=C(\CCC=C(C)C)C(=O)O (stereo not given in full),-2.5,-64,-81,-21,nt,13,nt,i,25,nt
COc1ccc(NC(=O)CN(C)S(=O)(=O)c2cccc3nsnc23)cc1OC,-2.2,nt,nt,nt,-3,nt,-5,nt,-8,-33
CCc1cc(C(=O)c2ccc(C)cc2)c(NC(=O)CCl)s1,-0.4,-23,-15,13,30,9.1,-22,i,7,nt
COc1ccc(C2=CC(=O)CC(c3ccc(OC)cc3)C2)cc1 (stereo not given),0.2,-28,-29,-6.3,0,-1.3,24,i,3,nt
O=C(Nc1ccc(/C=C/c2nc3ccccc3o2)cc1)c1cccc(C(F)(F)F)c1,-2.0,nt,nt,nt,22,nt,-8,nt,34,-5
Cc1ccc(Cn2nnc3c(=O)[nH]c(C4CCCN(S(=O)(=O)c5ccc(F)cc5)C4)nc32)cc1 (stereo not given),-0.5,8,10,-2.0,-6,-2.7,1,i,2,nt
CC1Oc2ccccc2N(Cc2ccccc2Cl)C1=O (stereo not given),?,nt,nt,nt,-10,-20,-8,i,0,2
COc1cc(CN(C)CC2CCCN(CCc3ccccc3F)C2)cc(Cl)c1OC (stereo not given),2.2,-14,-19,13,nt,7.8,0,i,58*,5
CC1CC(C)CN(C(=O)Cn2c(=O)n(CCCCC(=O)NCc3ccco3)c(=O)c3ccccc32)C1 (stereo not given),3.0,nt,nt,nt,-1,nt,12,nt,10,4
Cc1ccc(/C=N/c2sc(Cc3ccccc3)c(C)c2C(N)=O)o1,0.5,0,9,19,-1,-1.8,7,i,-26,67
Cn1nc([N+](=O)[O-])nc1Sc1nnc(-c2ccccc2)o1,1.1,nt,nt,nt,-15,nt,2,nt,69*,-27
CCOc1ccc(-c2nnn(CC(=O)NCc3ccc(F)cc3)n2)cc1OCC,0.0,-3,23,16,-1,-1.4,-15,i,-3,-10
N/C(=N\OC(=O)CCCOc1ccc(Cl)cc1Cl)c1ccccn1,-2.0,nt,nt,nt,3,-0.8,0,i,-7,-24
CC1CCCCN1C(=O)CSc1nnc(-c2ccccc2O)o1 (stereo not given),-5.2,-10,-24,-2.7,7,2.8,-1,i,2,11
COc1cccc(OC)c1C(=O)NC(=S)Nc1ccc2c(c1)Cc1ccccc1-2,-1.6,3,6,-5.1,-14,nt,4,nt,16,-23

# The listing continues:
SMILES,RanGTP-Imp inh,Ecoli rRNA inh,Ecoli rRNA inh OD600,Ecoli rRNA inh RFP,Beta cell apopt,MLL AF4-AF9 inh,Calb FLC,FGF22 binding,T cruzi repl,ALR inh
CCC(=O)N(C)CCc1cc2c(c(OC)c1/C=N/NC(=O)[C@H]1C[C@@H]1c1ccccc1)OCO2,0.4,-20,-18,0.7,4,4.1,-4,i,13,nt
C[C@@H]1CN=C2N(CCNC(=O)CCC3CCCCC3)[C@H](Cc3ccc(O)cc3)CN21,-2.2,12,11,2.4,1,3.7,-17,i,-10,-9
O=C(Cn1c(C(F)(F)F)nc2ccccc21)c1ccccc1,1.2,-27,-32,-9.0,-4,-12,5,i,-1,-4
O=C1C2C3C=CC(C3)C2C(=O)N1CNc1ccccc1 (stereo not given),3.1,nt,nt,nt,-5,nt,0,nt,-10,-37
COc1ccc(Cc2nc(-c3ccccc3)no2)cc1,-2.3,nt,nt,nt,1,nt,-9,nt,13,11
CCc1ccc(NC(=O)CN(c2ccc(OC)cc2)S(=O)(=O)c2c(C)nn(C)c2C)cc1,-2.3,8,7,-1.9,3,-5.1,-26,i,8,-5
O=C(c1ccc(S(=O)(=O)NCC2CCCO2)cc1)N1CCN(c2ccccc2)CC1 (stereo not given),?,3,-3,-2.0,2,0.4,4,i,-6,13
Cc1cccc(N2CC(C(=O)OCC(=O)Nc3sccc3C(N)=O)CC2=O)c1C (stereo not given),nt,6,-2,6.2,-1,-1.1,nt,i,nt,nt
O=C(OCc1ccc(F)cc1)c1cc(S(=O)(=O)N2CCCCC2)ccc1N1CCOCC1,0.0,5,4,0.6,21,-6.7,3,i,26,-2
CCCN1C2CCCC1CC(NC(=O)c1cc(OC)cc(OC)c1)C2 (stereo not given),1.2,11,6,0.5,-13,-0.4,3,nt,13,-6
CCOC(=O)Cc1c(C)nc2c(C#N)c(C)nn2c1C,2.4,nt,nt,nt,-3,nt,1,nt,4,59
CCOc1cc(NC(=O)C2CCCO2)c(OCC)cc1NC(C)=O (stereo not given),0.9,nt,nt,nt,-5,nt,-5,nt,6,-27
CCOc1ccc2nc(NC(=O)c3cccnc3)sc2c1,-2.4,13,2,6.6,-2,-23,53,i,-6,-10
CC1CC(C)CN(C(=O)C2CCN(S(=O)(=O)c3cccs3)CC2)C1 (stereo not given),3.0,nt,nt,nt,4,4.0,-6,i,-8,5
O=C(CSc1ccc(F)cc1)NCCc1ccc(Cl)cc1,3.4,-28,-50,-0.2,nt,-0.8,15,i,-3,-1
CN1c2ccc([N+](=O)[O-])cc2C(C)(C)C12C=Cc1cc(C(=O)O)ccc1O2 (stereo not given),0.6,-34*,-21*,-11*,-3,-1.3,-5,i,-18,98*
COC(=O)C1=C(Nc2ccc(C)cc2)C=C(C)C(C(=O)OC)C1c1cccc(OC)c1 (stereo not given),-3.2,nt,nt,nt,11,nt,7,nt,58*,-10
Cc1c(C(=O)OCC(=O)N(C)c2ccccc2)cccc1[N+](=O)[O-],-1.5,-8,-7,-1.0,-2,2.9,4,i,-10,7
COc1cnc(-c2ccccn2)nc1N(C)c1ccccc1,-5.9,-59,-75,-20,92*,2.7,?,i,66*,nt
COc1ccccc1CNC(=O)COC(=O)c1ccc2c(=O)n3c(nc2c1)CCCCC3,nt,9,7,0.1,-2,0.6,nt,i,nt,nt
O=C(CN1CCCCC1)Nc1ccc(S(=O)(=O)N2CCOCC2)cc1,-1.2,nt,nt,nt,0,nt,-7,nt,-14,0
Cc1ccc(C(=O)Nc2nccs2)cc1,-0.1,5,-6,0.7,1,2.4,0,i,-15,0
COc1cccc2c(=O)c(C/C=C(/C)Cl)c(C)[nH]c12,2.1,nt,nt,nt,-4,-1.0,-15,nt,?,-8
c1coc(CN2CN=C(Nc3nc4ccccc4s3)NC2)c1,-1.9,nt,nt,nt,0,nt,0,nt,-11,-4
COC(=O)c1ccc(NC(=O)CCOc2ccccc2)cc1,-0.3,8,-6,-0.6,-3,-1.7,3,i,-5,-1

# (listing goes on)
SMILES,RanGTP-Imp inh,Ecoli rRNA inh,Ecoli rRNA inh OD600,Ecoli rRNA inh RFP,Beta cell apopt,MLL AF4-AF9 inh,Calb FLC,FGF22 binding,T cruzi repl,ALR inh
CC(C)c1ccc(NC2CCCN(C(=O)CN3CCCC3=O)C2)cc1 (stereo not given),0.8,5,10,-3.0,-3,1.3,0,i,16,82*
CC(C)CCOP(=O)(c1ccc(N(C)C)cc1)C(Nc1ccccc1)c1ccc(N(C)C)cc1 (stereo not given),-1.4,9,3,2.5,0,13,-5,i,nt,2
CCOC(=O)N1CCC(=NNC(=O)Cn2ccc(C(F)(F)F)n2)CC1,2.9,7,14,4.7,-1,1.0,-6,i,-2,4
OCC1(Cc2ccccc2)CCCN(Cc2cn[nH]c2-c2ccccc2)C1 (stereo not given),0.7,3,-2,0.9,-5,2.6,-8,i,17,0
COc1ccc(C)cc1NC(=O)CSc1nnc(-c2ccc(Br)cc2)o1,0.2,9,8,-1.9,-3,1.1,-10,i,27,-6
CS(=O)(=O)N(CC(O)Cn1c2ccccc2c2ccccc21)c1cccc2ccccc12 (stereo not given),2.2,-18,-6,-1.7,nt,nt,-2,nt,48,-3
O=C(CSc1ccc(-c2ccccc2)nn1)NC1CCCC1,5.3,7,2,2.1,-10,-1.3,-1,i,3,23
Cc1cccc(OCC(=O)NCc2n[nH]c(=O)c3ccccc23)c1,2.1,13,1,0.0,nt,-0.7,4,i,-2,-2
C=CCn1c(SCC(=O)c2[nH]c(C)c(C(C)=O)c2C)nnc1-c1ccncc1,-0.1,nt,nt,nt,-7,nt,28,nt,-8,10
Nc1nc(SCC(=O)NN(c2ccccc2)c2ccccc2)n[nH]1,-0.8,9,11,0.1,-6,-0.7,8,i,-7,88*
O=C(NC1CCCCC1)c1ccc(CS(=O)Cc2ccc(Cl)cc2)o1 (stereo not given),1.1,-17,-11,-3.3,5,1.7,-2,i,-2,0
CC(C)CC(C(=O)NC1CCCCC1)N(Cc1cccs1)C(=O)c1snc(C(N)=O)c1N (stereo not given),-0.6,-20,-27,1.8,6,10,-2,i,18,-14
COC(=O)c1ccc(C)c(NC(=O)CN(c2cc(OC)ccc2OC)S(C)(=O)=O)c1,6.9,nt,nt,nt,-2,nt,5,nt,13,-38
Cc1cccc(N(CC(O)CN2CCCC2)S(=O)(=O)c2ccccc2)c1 (stereo not given),-2.2,4,-1,0.7,-1,-2.7,-3,i,-15,1
Cc1cccn2c(CNCCc3ccccn3)c(C(=O)N3CCOCC3)nc12,?,22,15,2.8,nt,-1.3,1,i,9,-11

# 2 compounds from above with just T cruzi repl and ALR inh.
Structure | T cruzi repl | ALR inh
CC(C)CCOP(=O)(c1ccc(N(C)C)cc1)C(Nc1ccccc1)c1ccc(N(C)C)cc1 (stereo not given) | nt | 2
CS(=O)(=O)N(CC(O)Cn1c2ccccc2c2ccccc21)c1cccc2ccccc12 (stereo not given) | 48 | -3

# Bioassay records from PubChem.
